RanGTP-Imp inh: inhibitors of RanGTP-importin-beta interaction, primary screen, biochemical, FRET, CFP-Ran, YFP-importin-beta, homogeneous | inhibition, % (concentration not given with the values) | hit rate 1.1% among 300,000 | AID 2216, 2009 | Ran GTPase (GTP-bound) - importin-beta complex | cell-free CFP-Ran/YFP-importin-beta FRET ratio;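 active = most replicates above 15%; inconclusive = exactly half above 15%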;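 also: 0% = DMSO wells and 100% = Ran loaded with GDP instead of GTP; wells of about 40 µL received 100 nL stock; the first replicate is given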
Calb FLC: C. albicans growth inhibition with fluconazole, primary screen, CaCi-2 strain, Alamar Blue fluorescence; C. albicans CaCi-2 (fluconazole-resistant clinical isolate) + fluconazole, 48 h; hit rate 0.57% among 300,000; growth inhibition, % (no concentration beside the values); AID 1979, 2009;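 active = most replicates above 75%; inconclusive = exactly half above 75%; inactive = most below 75%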;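 also: all wells also contain fluconazole at 8 µg/ml as a sub-toxic cotreatment; 0% = median of DMSO wells and 100% = median of geldanamycin control wells; wells of about 8 µL received 7.5 nL stock; the first replicate is given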
ALR H2O2 inh: inhibitors of human ALR sulfhydryl oxidase, primary screen, biochemical, H2O2 detection, HRP-luminol luminescence, single point | FAD-linked sulfhydryl oxidase ALR (Homo sapiens), P55789 | purified ALR, DTT oxidation | hit rate 3.8% among 290,000 | inhibition, % (concentration not given with the values);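 active = mean and each replicate at 75% or more; inconclusive = only one of the two met; inactive = neither met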;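 also: stock transfer was 7.5 nL into about 7.5 µL; 0% = neutral wells and 100% = wells with inactivated enzyme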
Target sequence (P55789 whole entry, looked up): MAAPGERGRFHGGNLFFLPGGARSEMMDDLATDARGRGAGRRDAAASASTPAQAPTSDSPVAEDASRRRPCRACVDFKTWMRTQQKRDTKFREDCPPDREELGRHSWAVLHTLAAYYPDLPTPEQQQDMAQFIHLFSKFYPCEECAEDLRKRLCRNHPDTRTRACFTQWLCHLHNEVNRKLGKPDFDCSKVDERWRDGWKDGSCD
Ecoli rRNA inh: reduced GFP signal of wild-type E. coli, primary screen, bacterial rRNA inhibitor project, GFP/RFP fluorescence, OD600, single point; E. coli WT GFP vs humanized-ribosome RFP mutants, 24 h; hits give low values; DMSO median 0, no signal -100; GFP signal change (wild-type ribosome), % (concentration not given with the values); hit rate 1.6% among 350,000; AID 720706, 2013;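 active = significant combined selectivity score with lowered wild-type GFP, culture density cut under 30%, mutant RFP and density less affected; inactive = any of these conditions unmet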; also: one replicate is shown; some compounds called inactive have numbers as strong as hits
T cruzi inh: inhibitors of intracellular T. cruzi growth, primary screen, luminescence, NIH3T3 host cells; T. cruzi beta-gal in NIH3T3, 90 h; hit rate 1.4% among 300,000; inhibition, % (no concentration beside the values);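 active = mean inhibition across valid replicates above about 55%, limit read from the data; inconclusive = mean below that limit but half or more replicates reach it; inactive = mean below it, under half of replicates reach it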;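 also: signal also drops with host cell toxicity which is not excluded here; 0% = plate median of DMSO wells and 100% = zero luminescence signal; higher percent means less beta-gal luminescence so fewer parasites; stock transfer was 50 nL into about 50 µL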
MLL AF4-AF9 inh: inhibitors of AF4 peptide binding to AF9, primary screen, biochemical, AlphaScreen, biotin-AF4 peptide, FLAG-AF9, single point; hit rate 0.47% among 350,000; Protein AF-9 (Homo sapiens), P42568; AID 651704, 2012; inhibition, % at 10 µM;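 active = every replicate reaching a set inhibition limit, whatever the replicate mean, cut at about 25% in these data; inconclusive = mean inhibition reaches that limit but some replicates miss it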;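 also: 0% = plate neutral control median and 100% = total signal loss; the record names both 10 and 1 µM as test concentration; the first replicate is given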
Target sequence (P42568 whole entry, looked up): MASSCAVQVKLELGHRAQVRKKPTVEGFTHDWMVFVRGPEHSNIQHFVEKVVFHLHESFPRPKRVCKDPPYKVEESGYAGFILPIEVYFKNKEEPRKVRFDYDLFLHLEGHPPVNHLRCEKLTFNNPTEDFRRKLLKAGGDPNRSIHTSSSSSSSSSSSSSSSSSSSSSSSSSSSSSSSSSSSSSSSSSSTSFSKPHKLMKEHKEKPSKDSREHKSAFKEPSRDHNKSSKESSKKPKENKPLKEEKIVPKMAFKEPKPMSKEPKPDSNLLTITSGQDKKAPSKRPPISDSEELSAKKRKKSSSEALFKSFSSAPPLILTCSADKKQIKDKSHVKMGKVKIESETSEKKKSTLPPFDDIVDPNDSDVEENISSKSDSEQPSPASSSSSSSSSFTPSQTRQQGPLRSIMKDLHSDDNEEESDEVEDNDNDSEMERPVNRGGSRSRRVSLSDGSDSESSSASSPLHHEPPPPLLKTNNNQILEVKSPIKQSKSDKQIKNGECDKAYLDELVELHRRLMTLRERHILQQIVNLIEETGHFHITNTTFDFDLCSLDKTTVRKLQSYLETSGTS
FGF22 binding: binders of human FGF22 protein, primary screen, FGF22 synaptogenesis inhibitor project, biophysical, thermal shift, single point; recombinant FGF22 thermal shift, SYPRO orange fluorescence; percent of sucrose octasulfate shift, DMSO zero; calls only at 9.99 µM; hit rate 1.5% among 340,000; AID 651658, 2012;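 active = melting point raised past a set limit in the mean and every replicate; inconclusive = no clear call; three in four hits are not shown here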
Target sequence (Q9HCT0 whole entry, looked up): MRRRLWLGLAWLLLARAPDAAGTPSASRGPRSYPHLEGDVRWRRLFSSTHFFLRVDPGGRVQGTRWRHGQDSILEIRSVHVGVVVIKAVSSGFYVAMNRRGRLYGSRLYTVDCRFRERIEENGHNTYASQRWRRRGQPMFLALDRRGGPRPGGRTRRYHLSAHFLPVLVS
Beta apoptosis: inhibitors of cytokine-induced beta cell apoptosis, primary screen, luminescence | protection from apoptosis, % (test concentration not listed) | AID 435005, 2010 | hit rate 0.8% among 300,000 | INS-1E cytokine-induced death, ATP luminescence, 48 h; percent of positive-control rescue, neutral wells zero;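 active = all replicates at 75% or more, or half of them and the mean; inconclusive = half reach 75% but not the mean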;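 also: 0% = cytokine-treated negative control wells and 100% = positive control rescue; higher means more ATP so stronger rescue from cytokine killing; wells of about 40 µL received 100 nL stock; the first replicate is given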
Ecoli rRNA inh OD600: further read-out of Ecoli rRNA inh, marked with its call; OD600 change, %; measured here: OD600 growth;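 optical density of the mix in the first replicate; 0 = DMSO median and -100 = no signal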
Ecoli rRNA inh RFP: recorded beside Ecoli rRNA inh, whose call it bears; RFP signal change, %; measured here: RFP humanized mutant strains;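 first replicate; 0 = DMSO median and -100 = no signal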
* = called active by the depositor; i = inactive; ? = inconclusive; nt = no result given.

compound	RanGTP-Imp inh	Calb FLC	ALR H2O2 inh	Ecoli rRNA inh	Ecoli rRNA inh OD600	Ecoli rRNA inh RFP	T cruzi inh	MLL AF4-AF9 inh	FGF22 binding	Beta apoptosis
CC(=O)C1=NN(c2ccccc2)C(c2cccs2)N1c1ccc(N(C)C)cc1 (centres undefined)	0.4	-2	6	nt	nt	nt	55*	nt	nt	103*
Cc1ccc(-n2c(O)c(/C=N/Nc3ccc(S(=O)(=O)N4CCOCC4)cc3[N+](=O)[O-])c3ccccc3c2=O)c(C)c1	5.5	7	28	4	16	-4.1	5	7.4	i	30
O=C(NCCc1c[nH]c2ccccc12)C1CCN(S(=O)(=O)c2ccccc2)CC1	-3.5	-4	3	-6	-12	1.1	8	-0.4	i	7
O=C(CCS(=O)(=O)c1ccc(Cl)cc1)N1CCCc2ccccc21	3.1	9	-2	-5	-6	1.2	-3	-9.8	i	0
CCC1(C)Cc2c(sc3nn[nH]c(=O)c23)CO1 (centres undefined)	1.8	?	4	nt	nt	nt	-21	nt	nt	3
COc1ncnc(OC)c1S(=O)(=O)NCc1ccccc1	0.7	-3	nt	8	8	-0.1	5	0.1	i	-1
CCCOc1ccccc1-c1nc2c([nH]1)c(=O)[nH]c(=O)n2C	75*	8	-13	nt	nt	nt	10	nt	nt	1
O=C(O)CC(c1ccc(OC2CCCC2)cc1)N1C(=O)c2ccccc2C1=O (centres undefined)	4.2	3	nt	-19	-22	0.3	-12	-20	i	-9
O=C(CN1C(=O)/C(=C2/SC(=S)N(CCS(=O)(=O)O)C2=O)c2ccccc21)Nc1cccc(C(F)(F)F)c1	nt	nt	-7	16	16	3.5	nt	2.8	i	-2
COc1ccc(C(=O)NC(=S)NCc2cccnc2)cc1Cl	8.4	5	nt	-21*	-13*	0.2*	13	2.1	i	-4
CSc1ccccc1NC(=O)COc1ccc2c(c1)OCO2	nt	nt	nt	-1	-1	-2.6	nt	5.0	i	-8
COc1ccc(C)cc1-n1nnnc1SCC(=O)Nc1cccnc1Cl	3.9	3	nt	nt	nt	nt	-22	nt	nt	2
N#CCCN(C(=O)COC(=O)CNC(=O)c1cccs1)c1ccc(F)cc1	-1.9	-1	-1	4	14	1.3	-3	-0.5	i	-9
O=C(/C=C/c1ccco1)N(Cc1cccc(Br)c1)C1CCS(=O)(=O)C1 (centres undefined)	-0.9	-1	4	nt	nt	nt	7	2.9	i	nt
CCOP(=O)(O)c1ccccc1OCCOc1ccccc1P(=O)(O)OCC	-0.3	-1	-3	nt	nt	nt	-11	nt	nt	-4
O=C(Nc1ccccc1C(=O)O)c1cc(S(=O)(=O)Nc2cccc(F)c2)ccc1Cl	-4.0	3	52	-28	-42	-8.0	3	-7.5	nt	5

Quoted at random: 4 compounds from above.
compound	RanGTP-Imp inh	Calb FLC	ALR H2O2 inh	Ecoli rRNA inh	Ecoli rRNA inh OD600	Ecoli rRNA inh RFP	T cruzi inh	MLL AF4-AF9 inh	FGF22 binding	Beta apoptosis
O=C(/C=C/c1ccco1)N(Cc1cccc(Br)c1)C1CCS(=O)(=O)C1 (centres undefined)	-0.9	-1	4	nt	nt	nt	7	2.9	i	nt
O=C(CN1C(=O)/C(=C2/SC(=S)N(CCS(=O)(=O)O)C2=O)c2ccccc21)Nc1cccc(C(F)(F)F)c1	nt	nt	-7	16	16	3.5	nt	2.8	i	-2
N#CCCN(C(=O)COC(=O)CNC(=O)c1cccs1)c1ccc(F)cc1	-1.9	-1	-1	4	14	1.3	-3	-0.5	i	-9
CSc1ccccc1NC(=O)COc1ccc2c(c1)OCO2	nt	nt	nt	-1	-1	-2.6	nt	5.0	i	-8

Some entries already given with just Ecoli rRNA inh RFP:
Compound | Ecoli rRNA inh RFP
O=C(Nc1ccccc1C(=O)O)c1cc(S(=O)(=O)Nc2cccc(F)c2)ccc1Cl | -8.0
COc1ccc(C(=O)NC(=S)NCc2cccnc2)cc1Cl | 0.2*

The list continues:
compound	RanGTP-Imp inh	Calb FLC	ALR H2O2 inh	Ecoli rRNA inh	Ecoli rRNA inh OD600	Ecoli rRNA inh RFP	T cruzi inh	MLL AF4-AF9 inh	FGF22 binding	Beta apoptosis
Cc1ccc(S(=O)(=O)c2nc(NC3CCS(=O)(=O)C3)sc2Cl)cc1 (centres undefined)	0.4	2	nt	nt	nt	nt	-1	nt	nt	-7
CCCCN1C(=O)C(NC(C)=O)c2ccccc21 (centres undefined)	-1.6	2	nt	nt	nt	nt	-9	nt	nt	-1
O=C(Nc1nnc(C2CC2)s1)c1ccc(Cl)c(S(=O)(=O)N2CCc3ccccc3C2)c1	0.4	7	3	-6	-8	-4.7	0	-1.7	nt	5
CC(C)N(C(=O)CSc1nc2ccccc2n1-c1ccccc1)C(C)C	4.1	4	-19	nt	nt	nt	22	nt	nt	-5
COC(=O)CN1C(=O)C(C)(C)Oc2ccc(C(=O)NC3CCCC3)cc21	-1.1	6	1	3	-5	-3.6	-8	1.5	i	-1
CC(C)CCn1c(SCCN2CCOCC2)nc2c1c(=O)[nH]c(=O)n2C	-0.2	10	-4	nt	nt	nt	0	nt	nt	3
Cc1ccc(OCCn2cnc3c2c(=O)n(C)c(=O)n3C)cc1	-0.3	20	6	10	7	0.5	-6	-4.5	i	-7
CCn1nc(C(=O)N2CCc3ccccc32)c2ccccc2c1=O	nt	nt	-9	1	-19	-1.6	nt	-10	i	4
COC(=O)[C@H](Cc1ccccc1)NC(=O)NC(C)CCc1ccccc1 (some centres undefined)	-1.5	-2	-17	-3	-13	6.0	-6	-3.4	i	-9
CCN1CCN(C(=S)c2ccc(SC)cc2)CC1	3.4	-15	-20	nt	nt	nt	2	nt	nt	3
CCCC1=C(C(=O)OCC)C(c2ccccc2OC)NC(=O)N1 (centres undefined)	6.2	nt	-2	nt	nt	nt	12	nt	nt	4
Cc1ccc(NC(=O)c2cccs2)cc1NC(=O)c1ccco1	3.2	-8	7	nt	nt	nt	5	nt	nt	-1
Brc1ccc(CN2CCN(Cc3c[nH]c4ccccc34)CC2)cc1	-2.4	3	-30	-1	-12	2.9	42	16	i	88*
O=C(c1ccccn1)N1CCCC(N2CCN(Cc3ccc4c(c3)OCO4)CC2)C1 (centres undefined)	2.2	-2	0	2	1	-0.1	1	-1.3	i	-3
COc1cccc(OC)c1C(=O)Nc1c(C)n(C)n(-c2ccccc2)c1=O	4.6	34	-5	nt	nt	nt	-4	nt	nt	-3
CCCc1cc(=O)oc2cc(OC(C)C(=O)NCC3CCC(C(=O)O)CC3)ccc12 (centres undefined)	0.4	-7	-8	3	2	2.5	2	-2.0	i	6
Cc1ccc(OCC(=O)NC2CC(C)(C)NC(C)(C)C2)cc1C	-2.0	-6	-3	10	12	-0.5	-1	-0.4	i	nt
CC(C)Sc1oc(-c2ccco2)nc1S(=O)(=O)c1ccc(F)cc1	0.5	-3	nt	nt	nt	nt	17	nt	nt	-8
CCOC(=O)c1c(C)[nH]c(C)c1C(=O)COC(=O)c1ccc(Cl)c(S(=O)(=O)NCc2ccccc2)c1	-4.7	4	0	nt	nt	nt	39	nt	nt	-9
COc1ccc(Cl)cc1S(=O)(=O)N1CCN(C(=O)COc2ccccc2)CC1	1.0	13	-3	nt	nt	nt	11	nt	nt	nt
O=C(O)Cc1ccccc1C(=O)O	4.5	-1	-7	nt	nt	nt	-5	nt	nt	nt
CC1CCN(CCn2c(=S)[nH]c3ccccc3c2=O)CC1	2.3	2	14	-5	0	-1.5	-6	3.6	i	nt
CCN(CC)CCNc1nc(C(F)(F)F)nc2c1nnn2Cc1ccccc1	1.0	3	-33	9	0	2.6	34	-14	i	6
C#CCSc1nc2sc3c(c2c(=O)n1C)CCC3	-2.0	nt	3	2	3	-1.4	10	-4.0	i	0
CS(=O)(=O)N(CC(=O)O)c1cc(C(F)(F)F)ccc1Cl	nt	nt	nt	7	7	13	nt	-1.8	i	-10
CCC(Sc1ncccc1C(=O)O)C(=O)N1CCOCC1 (centres undefined)	-4.1	-8	2	nt	nt	nt	0	nt	nt	-3
CCN(CC)CCN1C(=O)C2C(C(=O)Nc3cc(C)cc(C)c3)C3C=CC2(O3)C1C(=O)NC1CCCCC1 (centres undefined)	1.1	-2	4	7	4	-0.3	-2	4.9	i	-4
CC1CN(CCc2ccccc2)C(C)C/C1=N/O (centres undefined)	1.1	5	-4	9	5	-1.0	-26	nt	i	23
COc1ccc(NC(=O)CCCn2c(=S)[nH]c3ccccc3c2=O)cc1	-1.2	-2	-2	-1	2	0.9	0	4.6	i	11
COc1ccc(NC(=O)CSc2n[nH]c(CNc3cccc(C)c3)n2)cc1	?	?	4	0	-2	-2.4	-8	2.8	i	5
CS(=O)(=O)N(CC(=O)NC1CC1)C1CCCCC1	-1.6	-4	-3	nt	nt	nt	-13	3.3	i	2
Cc1ccc(CN2CCN(c3ccccc3)CC2)o1	0.8	2	nt	5	9	0.4	-4	1.2	i	nt
CCCCSc1nnc([C@H](CC(C)C)NC(=O)OC(C)(C)C)o1	0.9	5	-2	nt	nt	nt	2	nt	nt	-2
CCOC(=O)C1CCCN(c2ccc(NC(=O)c3snc4c(=O)[nH]cnc34)cc2)C1 (centres undefined)	2.7	8	-6	nt	nt	nt	20	nt	nt	14
CC(C)(C)NC(=O)Cn1nnc(-c2ccc(OCc3c(F)cccc3Cl)cc2)n1	4.4	3	nt	1	3	-1.4	3	-4.0	i	8
CCCn1c(SCC(=O)Nc2ccccc2CC)nnc1C(C)C	-1.2	-4	-20	nt	nt	nt	-2	nt	nt	-3
CCCCCCn1nc(C(=O)Nc2nc3c(s2)CCCC3)c2ccccc2c1=O	-2.0	-2	-22	nt	nt	nt	49	nt	nt	13
CCN1CCN(c2c(/C=C3\SC(=S)N(Cc4ccco4)C3=O)c(C)c(C#N)c(=O)n2C)CC1	-50	34	3	7	4	6.9	-15	0.5	i	nt
Cc1cccc2cc(C#N)c(N3CCOCC3)nc12	13	2	-14	-7	-12	-0.3	-8	-3.3	i	-13
Cc1ccc(NC(=O)CCc2c(C)nn(-c3ccc(N4CCOCC4)nn3)c2C)cc1	4.4	-6	-5	3	-1	1.2	-18	0.8	i	2
O=C(/C=N/NC(=O)c1ccccc1Br)c1ccccc1	-0.9	5	2	-6	6	3.8	-16	-2.8	i	-4

From PubChem BioAssay

A portion of the library (hit frequency here may not be typical).
